D2 agonist = agonists of human D2 dopamine receptor (beta-arrestin); 0.084% of 360,000 active; AID 624465; P14416; DiscoveRx PathHunter D2 beta-arrestin, luminescence, 90 min; 100% = 57 uM dopamine signal; activation, % (no concentration beside the values); in the data active = activation above about 40%; inconclusive = about 15% to 40%; inactive = below about 15%; also: compound concentration not given in the record; the text of the record calls up to 30% inactive
Target sequence (P14416 whole entry, looked up): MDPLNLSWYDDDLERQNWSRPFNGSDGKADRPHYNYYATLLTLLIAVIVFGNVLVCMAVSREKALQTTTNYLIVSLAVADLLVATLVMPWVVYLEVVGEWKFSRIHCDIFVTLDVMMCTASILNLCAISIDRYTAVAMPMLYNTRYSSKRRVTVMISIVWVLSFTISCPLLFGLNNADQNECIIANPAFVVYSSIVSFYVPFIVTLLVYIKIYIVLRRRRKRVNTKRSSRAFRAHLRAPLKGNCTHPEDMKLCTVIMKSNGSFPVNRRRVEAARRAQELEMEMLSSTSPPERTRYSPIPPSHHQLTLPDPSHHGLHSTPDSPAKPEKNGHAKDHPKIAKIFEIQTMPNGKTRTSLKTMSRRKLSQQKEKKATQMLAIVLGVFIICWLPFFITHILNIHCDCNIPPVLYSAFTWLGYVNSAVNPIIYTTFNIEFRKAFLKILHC
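DiscoveRx PathHunter D2 beta-arrestin cells (2,100/well) attached overnight, then compound-stimulated 90 min at 37 C in HBSS/10 mM HEPES/0.1% Tween-20 buffer; beta-galactosidase complementation read by luminescence after 1 h at ambient temperature. Dopamine 57 uM final (EC100) as control.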
Menin-MLL FL inh = menin-MLL binding inhibition, fluorescein peptide | FP activity change, % at 61.4 µM | 290,000 tested, under 10 active | AID 1766 | Fluorescence polarization, fluorescein-MLL peptide displacement from menin; inconclusive = falling polarisation curve, or a change in total fluorescence; inactive = total fluorescence flat and polarisation flat or rising; no compound was filed as active; the % refers to the polarisation; negative = inhibition;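 also: % of control where 0% means no effect; inhibitors lower the polarisation; unlabelled MLL peptide was the positive control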
gsp antag = antagonizes gsp, the McCune-Albright syndrome mutation. gsp-mutant cells, cAMP HTRF, 30 min; control for the full effect not named in the record. Potency, µM (series often up to 76.9 µM), for the others: at the top dose activity change, negative = inhibition, hits mostly inhibitors. 0.4% of 340,000 active; active = falling curve of any shape with a large fitted effect; inconclusive = falling curve, mostly with a smaller effect; inactive = flat or rising curve; cell line not stated here;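 also: intracellular cAMP measured with PDE inhibitor Ro 20-1724 present during compound exposure; potency is read from the fitted curve at half-maximal effect; % is scaled to controls: 0 for no effect and ±100 for the full control effect; nearly all actives have a fitted effect of over 65% in size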
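HTRF cAMP read-out (cAMP-d2 plus anti-cAMP antibody-K in lysis buffer, 30 min RT). Before lysis, cells are exposed to compounds with […] for 30 min at 37C in DPBS containing Ca/Mg, BSA and Tween 20.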
PINK1 expr mod = changes PINK1 expression | PINK1 immunofluorescence, high-content cytometry, 24 h | Potency, µM (titrated, usually from 76.6 µM), without a hit: at the highest dose activation (PINK1 increase), most hits filed as activators | 0.2% of 410,000 active; active = well fitted activation curve with a large enough effect; inconclusive = small, poorly fitted or top-dose-only effect; inactive = flat fitted curve, though single readings scatter; cell line not stated here;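 also: potency is read from the fitted curve at half-maximal effect; % of control where 0% means no effect; nearly all actives have a fitted effect of over 65% in size; a mitochondrial uncoupler was the plate control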
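Compound titrations (5 concentrations, 24 h) on a stable cell line; DMSO and CCCP controls. Endpoint: fixed-cell PINK1 immunofluorescence with mitochondrial, cell and nuclear markers, scanned by microplate cytometer.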
gsp ag = gsp mutant agonism; 0.13% of 340,000 active; AID 624287; gsp mutant cells, cAMP HTRF, 30 min; control for the full effect not named in the record; Potency, µM (doses to about 76.9 µM), without a hit: at the highest dose activation (cAMP increase), actives largely listed as activators; active = well fitted activation curve with a large enough effect; inconclusive = small, poorly fitted or top-dose-only effect, or another doubt; inactive = no such curve, though single readings can be large or run the other way; cell line not stated here;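 also: phosphodiesterase inhibitor Ro 20-1724 added with compounds to block cAMP breakdown; potency is read from the fitted curve at half-maximal effect; nearly all actives have a fitted effect of over 60% in size; about a fifth of the inactives were tested at one dose only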
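Cells stably selected in G418 were plated at 2000/well, grown 16-24 hr, then given compounds in DMSO with the PDE inhibitor […] (300 uM solution added) for 30 min at 37C; cAMP was read by HTRF.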
Sfp PPTase inh = inhibitors of Bacillus subtilis Sfp phosphopantetheinyl transferase; Q9F4F7; Biochemical Sfp PPTase activity, qHTS; Potency, µM, for the others: max response, negative = inhibition, most hits filed as inhibitors; 3.5% of 310,000 active; active = well fitted inhibition curve with a large enough effect; inconclusive = small, poorly fitted or top-dose-only effect, or another doubt; inactive = no such curve, though single readings can be large or run the other way;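 also: the enzyme is Sfp with the accession as filed and its product quenches rhodamine fluorescence; potency is read from the fitted curve at half-maximal effect; 0% = enzyme reaction without inhibitor and -100% = no enzyme wells; top concentration of the series not given in the record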
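Fluorescence-quenching assay: 15 nM Sfp-PPTase preincubated 15 min at room temperature with compound, then 5 uM rhodamine-CoA and 12.5 uM BHQ-2-labelled YbbR peptide added. Fluorescence (ex 525/em 598 nm) read at start and after 30 min; difference gives rate.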
ClpP mod = qHTS Assay for Activators of ClpP | purified B. subtilis ClpP, FRET peptide cleavage, 20 min | Potency, µM (titrated, usually from 57.5 µM), for the others: at the highest dose activity change, negative = active | 1.9% of 340,000 active; active = well fitted falling curve with a large enough effect; inconclusive = small, poorly fitted or top-dose-only effect; inactive = no such curve, though single readings can be large or run the other way; also: potency is read from the fitted curve at half-maximal effect; the source files actives as falling curves though it sought activators and does not explain the sign; nearly all actives have a fitted effect of over 65% in size; many hits overshoot -100%
Target sequence (P80244 whole entry, looked up): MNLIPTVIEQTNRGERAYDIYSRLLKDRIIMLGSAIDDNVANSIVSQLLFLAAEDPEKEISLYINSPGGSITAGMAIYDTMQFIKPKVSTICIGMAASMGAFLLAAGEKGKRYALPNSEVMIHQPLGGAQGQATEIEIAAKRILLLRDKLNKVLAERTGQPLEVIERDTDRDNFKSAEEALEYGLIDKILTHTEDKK
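FRET quenching reversal measured ClpP activation: 10 microg/mL B. subtilis ClpP at pH 8 with the FRET-FV decapeptide, read at 430 nm after 320 nm excitation. The 20-min minus 0-min signal was scaled between DMSO/no-enzyme wells and ADEP (5.8 microM final).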
* = called active by the depositor; u = inconclusive; x = no result given; & = joins results of further samples; [ ] = remark or other dose.

SMILES	D2 agonist	Menin-MLL FL inh	gsp antag	PINK1 expr mod	gsp ag	Sfp PPTase inh	ClpP mod
CC(C)(C)NC(=O)CSc1nncn1NCc1cccc2ccccc12	-4.6	3.4	0.0%	2.3%	-2.3%	13.0%	-4.9%
N#CC1(Nc2ccc(-c3ccc(Cl)cc3)cc2)CCCC1	1.0	x	2.6%	5.6%	u	x	-18.6%
O=C(CCCCCl)Nc1c2c(nc3ccccc13)CCC2	-2.2	-3.7	4.9%	0.4%	-5.0%	3.2%	x
C=CCN(c1ccc(C(=O)NCCSc2ccccc2)cc1)S(C)(=O)=O	-2.3	2.2	-2.2%	-1.7%	13.1%	-15.5%	-2.3%
O/N=C/c1cn(-c2ccccc2)nn1	-2.7	0.9	9.6%	0.2%	7.1%[15.4 µM]	15.2%	x
CCOC(=O)N1CCC(N2C(=O)c3ccc(C(=O)NCc4ccc(F)cc4)cc3C2=O)CC1	0.4	-2.4	0.0%	0.1%	-93.4%[inhibitor]	-14.0%	-1.4%
Cc1ccc(-n2c(N)c(C(=O)N3CCCCC3)sc2=S)cc1	-3.9	3.5	-1.0%	5.9%	-33.0%[inhibitor]	44.7µM*	0.8%
COC(=O)c1ccc2c(=O)n(CCN3CCOCC3)c(SCC(=O)Nc3ccc(C)cc3)nc2c1	0.7	x	-21.4%	2.0%	u	-7.0%	-0.4%
O=C(NN1C(=O)C2C3C=CC(O3)C2C1=O)c1ccncc1 (centres undefined)	-4.4	4.1	6.7%	0.4%	-4.1%[15.4 µM]	u	-1.9%
O=C(O)CC(C(=O)O)c1ccc(OCCCCOc2ccc(C(CC(=O)O)C(=O)O)cc2)cc1 (centres undefined)	1.4	-8.7	5.0%	-1.8%	-5.0%	11.9%	2.1%
Cc1ccc(OCC(=O)Nc2ccc(S(=O)(=O)Nc3ccccn3)cc2)cc1	4.4	-1.1	-2.3%	14.9%	-0.6%	7.2%	x
COc1cc(CNC(=O)c2cnccn2)cc(OC)c1	-3.3	x	5.0%	-1.7%	-10.5%	x	-1.4%
COc1cc2c(C(=O)NCc3ccccn3)cn(C)c(=O)c2cc1OC	0.4	0.1	5.5%	0.1%	27.4%	6.1%	-26.5%
Cc1cc(N2CCCCCC2)nc2ccccc12	-4.0	-2.1	u	4.2%	3.3%	-95.1%	u
CC(=O)Nc1cc(C(F)(F)F)ccc1OCCOc1ccccc1	-2.5	x	-17.4%	1.8%	8.4%	x	-1.2%
COc1ccc(OC)c(NC(=O)c2cc(-c3cc(C)cc(C)c3O)n[nH]2)c1	-0.4	5.9	-17.5%	u	-16.3%[15.4 µM]	8.6%	0.3%
O=C(O)C1CN(C(=O)c2ccccc2)c2cc(Cl)ccc2O1 (centres undefined)	0.6	-1.0	5.4%	0.4%	-51.4%[inhibitor][15.4 µM]	-12.5%	x
CCCOc1ccc(C(=O)NC(=S)NCc2cccnc2)cc1	1.7	2.5	-23.5%	1.7%	3.0%	-1.6%	-0.7%
O=C(NCCC1=CCCCC1)C1CCC(CNc2c(N3CCCC3)c(=O)c2=O)CC1 (centres undefined)	-1.4	39.6[activator]	5.0%	0.3%	3.6%[15.4 µM]	21.2%	x
CC[n+]1ccc(C[n+]2ccccc2)c2ccccc21	1.9	-0.6	-1.5%	-1.4%	2.6%	50.1µM*	-10.4%
COc1ccccc1-c1cc(C(=O)O)c2c(=O)n(C)c(=O)n(Cc3ccccc3)c2n1	-4.0	3.8	14.6%	2.7%	-0.3%[15.4 µM]	4.8%	x
Cc1ccc(-c2cc(C(=O)NCc3ccc4c(c3)OCO4)[nH]n2)c(O)c1C	-4.7	-1.9	-16.6%	0.7%	-34.2%[inhibitor]	9.1%	0.7%
CC(Oc1ccc(Cl)cc1)c1ccnn1S(=O)(=O)c1ccc(Cl)cc1 (centres undefined)	-0.8	2.0	-20.9%	-3.3%	0.6%	-7.3%	-0.3%
CCN(c1ccccc1)S(=O)(=O)c1ccc(NCC2COc3ccccc3O2)nc1 (centres undefined)	0.7	11.4	-20.9%	0.2%	0.0%	32.7%	-11.4%
CCc1noc(C)c1C(=O)N(CC)c1nc2c(C)cccc2s1	-2.4	x	-23.5%	u	8.6%[15.4 µM]	x	x
Cc1cccc(CS(=O)(=O)Cc2ccc(C(=O)NCc3cccnc3)o2)c1	0.3	-1.2	-3.6%	1.2%	-48.5%[inhibitor]	0.7%	0.2%
Nc1c(C(=O)Nc2ccc(F)cc2)sc(=S)n1-c1ccccc1F	-2.3	0.1	1.7%	2.9%	3.0%	31.6µM*	-1.8%
COc1ccc(/C=N/NC(=O)c2ccncc2)cc1COc1ccc(NC(C)=O)cc1	-0.6	11.6	-6.1%	2.0%	-1.0%	28.7%	-0.9%
COC(=O)C(CC(C)C)N1CCC(=O)c2ccccc2S1(=O)=O (centres undefined)	-0.2	-8.5&-0.6	7.0%	0.5%	-0.8%	2.6%&1.5%	1.0%
CCc1cc(-c2cnnn2Cc2ccccc2)ccc1-c1cn(CC(C)C)nn1	2.7	x	x	26.3%	-4.6%	x	u
Cc1ccc(NCc2cccc(B(O)O)c2)cc1	-1.6	x	-5.6%	0.4%	x	x	-4.1%
CCc1ccc2[nH]c(=O)c(CN(CCCN3CCOCC3)C(=O)Nc3ccc(Cl)cc3)cc2c1	-2.4	0.3	-1.8%	0.3%	-5.7%	17.6%	-20.8%
COc1ccc(NC(C)c2ccccc2)cc1 (centres undefined)	-4.0	6.3	10.7%	2.4%	-7.2%	4.1%	x
COc1ccc(NC(=O)N(CCc2ccccc2)Cc2cc3c(C)cc(C)cc3[nH]c2=O)cc1	0.3	3.6	-9.3%	2.6%	u	10.9%	-5.6%
Cc1ccc2[nH]c(=O)c(CN(CCCN3CCOCC3)C(=O)NC3CCCCC3)cc2c1	-2.3	-2.8	6.9%	17.5%[38.3 µM]	-39.3%[inhibitor]	1.8%	u
CCOc1ccc(S(=O)(=O)Nc2nccs2)cc1	-2.3	1.8	-2.7%	-0.1%	5.1%[15.4 µM]	15.2%	x
O=S1(=O)CCN(CCCc2ccccc2)CC1	-2.2	x	x	1.1%	-2.2%	x	0.3%
Cc1ccc(NC(=O)C(=O)NCC2OCCc3ccccc32)cc1 (centres undefined)	-3.8	-1.0	0.4%	13.0%	-7.3%	12.2%	-1.5%
CC(C)CCNC(=O)NC(=O)COC(=O)C1=COCCO1	-2.1	-3.4	26.2%	-0.4%	16.9%	15.5%	0.9%
O=C(NC(=S)Nc1ccc2c(c1)OCCO2)c1cccc2ccccc12	-3.5	-2.0	-16.6%	-1.2%	17.2%	-5.5%	-0.4%
CC(C)Sc1n[nH]c(=O)n1-c1ccccc1	-3.1	0.5	0.9%	-0.1%	23.3%	15.2%	0.4%
Cc1ccc(C)c(-n2nnnc2SCC(=O)Nc2cccc(-c3nnc4n3CCCCC4)c2)c1	-1.0	0.8	u	x	-56.5%[inhibitor]	-11.5%	1.2%
CCOc1ccc(S(=O)(=O)N2CCN(CC(O)COc3cccc([N+](=O)[O-])c3)CC2)cc1 (centres undefined)	0.7	-0.6	-22.8%	-2.6%	-24.9%[15.4 µM]	-8.5%	-4.5%
O=C(NC1CCS(=O)(=O)C1)c1cccc(S(=O)(=O)N2CCCCC2)c1 (centres undefined)	-2.2	4.3	13.7%	-0.3%	1.3%	5.9%	0.6%
CC1(C)Cc2ccccc2C(=NC(Cc2c[nH]c3ccccc23)C(=O)O)N1 (centres undefined)	0.5	4.4	2.7%	0.5%	14.3%	10.4%	0.3%
CCOC(=O)c1ccc(NC2Nc3cc(C)nn3S2)cc1 (centres undefined)	1.9	-1.6	11.7%	0.5%	u	3.3%	x
Cc1ccc(F)cc1NC(=O)CCc1c(C)nn(-c2ccc(N3CCCCC3)nn2)c1C	4.5	x	-12.0%	-0.1%&2.2%	u	3.3%	-2.1%&-3.1%
Cc1ccccc1N(CC(=O)NC1CCCC1)C(=O)c1csnn1	-3.7	-0.7	0.2%	0.8%	-1.7%[15.4 µM]	5.7%	-2.7%
CC1(C)Cc2c(cnn2-c2ccccc2)-c2c1c1ccccc1n2CC(O)CBr (centres undefined)	-0.1	1.5	-15.2%	1.6%	0.0%	10.0%	14.1µM*
COCCn1c(=NC(=O)c2cccs2)sc2cc(NC(C)=O)ccc21	-1.4	3.0	-11.6%	3.2%	-6.6%	6.8%	-1.3%
COCCNC(=S)N/N=C/c1c2ccccc2cc2ccccc12	0.6	u	-22.7%	u	-2.6%[15.4 µM]	3.1%	x
C=CCNC(=S)NNC(=O)COc1ccc2cc(Br)ccc2c1	-8.5	-6.2	-13.6%	-3.1%	-2.6%[15.4 µM]	11.2%	-2.6%
O=C(Nc1cccc(Cl)c1)c1nc[nH]c1C(=O)Nc1ccccc1F	-7.4	x	x	11.1%	-59.8%[inhibitor]	x	1.3%
CC1CC(=O)C=C(O)C1C(=O)OC(C)(C)C (centres undefined)	-1.4	-0.4	5.3%	0.9%	1.5%	15.8%	-1.3%
Cc1cccc(NC(=O)C(C)Sc2nnc(-c3cccnc3)o2)c1 (centres undefined)	3.6	x	-12.0%	-0.2%	u	x	-2.2%
COC(=O)CCC(=O)OC1(C)C(=O)C2=CN(Cc3ccc4c(c3)OCO4)C(c3ccc(OC)cc3)=CC2=C(Br)C1=O (centres undefined)	3.2	0.1[11.7 µM]	-14.1%	-0.1%	x	0.0%	-2.9%
CC(=O)N(C)c1ccc(NC(=O)CCN2C(=O)c3ccccc3C2=O)cc1	-3.4	-0.3	-2.0%	-0.6%	u	4.0%	-1.3%
CCOC(=O)N1CCC(NC(=O)c2cc3c(-c4ccc(OC)c(OC)c4)nn(C)c3s2)CC1	-7.4	-1.1	-0.5%	2.3%	0.6%	10.3%	u
CCCCc1ccc(S(=O)(=O)NC(=O)C2(C)CCN2C(=O)c2ccccc2)cc1 (centres undefined)	2.8	x	x	-0.1%	x	x	-2.8%
O=C(Nc1ccc2c(c1)OCO2)c1ccc(NC2CC2)c([N+](=O)[O-])c1	-6.1	9.9	7.9%	1.4%	-64.3%[inhibitor]	10.2%	u
CC(=O)Cc1nsc(Nc2ccc(Cl)cc2)n1	2.0	5.1	0.3%	-0.2%	13.8%[15.4 µM]	13.6%	-0.5%
NS(=O)(=O)c1ccc(N/N=C/C=C/c2ccccc2[N+](=O)[O-])cc1	-1.5	4.5	-1.6%	-0.3%	11.3%[15.4 µM]	8.7%	x
